High-throughput results: PubChem, several laboratories
CSC inhib: cancer stem cell inhibition; cancer stem cell-like cells viability, luminescence; inhibition, % at 7.5 µM; hit rate 1.1% among 300,000; AID 2717;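 active = mean at 75% or more and at least half the replicates too; inconclusive = mean and replicates disagree; tested in HMLE shEcad cells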;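 also: 0% = median of negative and 100% = median of positive control wells; the first replicate is given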
MT1-MMP act inh: MT1-MMP (human) activation inhibition; HT1080 RFP-PRO-GFP cells, GFP/RFP ratio fluorescence, overnight; percent of plate control window, DMSO zero; GFP/RFP ratio change, % at 20 µM; AID 651647; P50281; hit rate 0.061% among 360,000;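 active = GFP/RFP ratio change of at least 30% with cell ATP level not reduced by more than half and red fluorescence within 50% of control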; also: strong numbers were not always called active
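Test system: HT1080 RFP-PRO-GFP cells; Benchmarks: DMSO and RFP-L50D-GFP cell wells; Timing: cells overnight before dosing, compound overnight, 37 °C, 5% CO2; Compound: one 20 µM compound dose with 1% DMSO; Read-out: GFP/RFP fluorescence ratio.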
UUG fidelity: alters start codon recognition fidelity in yeast. S. cerevisiae UUG-firefly luciferase reporter, luminescence/redox ratio. AID 602363. hit rate 0.13% among 350,000. activity score, % at 18.7 µM;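 active = replicate mean at a twofold rise or more, about +100% in these data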;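 also: firefly luciferase made from a UUG start codon reports start codon fidelity; reporter light over untreated wells divided by growth signal over untreated wells; some hits fall short of that in this replicate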
PABP FP inh: PABP-poly(A) binding inhibition; AID 2014; PABP-poly(A) RNA binding, fluorescence polarization; inhibition, % at 35 µM; hit rate 1% among 290,000;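 active = 50% or more with normal probe brightness, or confirmed in later tests; inconclusive = above 50% with abnormal brightness, or retests that disagree; inactive = below 50% or failed in later tests; about a fifth of its hits are not listed in these tables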;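 also: calls also rest on retests at 20 µM and on dose response follow-up; controls were probe without protein and protein plus probe with vehicle; some compounds called inactive have numbers as strong as hits; many hits fall short of the cut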
Target sequence (P11940 whole entry, looked up): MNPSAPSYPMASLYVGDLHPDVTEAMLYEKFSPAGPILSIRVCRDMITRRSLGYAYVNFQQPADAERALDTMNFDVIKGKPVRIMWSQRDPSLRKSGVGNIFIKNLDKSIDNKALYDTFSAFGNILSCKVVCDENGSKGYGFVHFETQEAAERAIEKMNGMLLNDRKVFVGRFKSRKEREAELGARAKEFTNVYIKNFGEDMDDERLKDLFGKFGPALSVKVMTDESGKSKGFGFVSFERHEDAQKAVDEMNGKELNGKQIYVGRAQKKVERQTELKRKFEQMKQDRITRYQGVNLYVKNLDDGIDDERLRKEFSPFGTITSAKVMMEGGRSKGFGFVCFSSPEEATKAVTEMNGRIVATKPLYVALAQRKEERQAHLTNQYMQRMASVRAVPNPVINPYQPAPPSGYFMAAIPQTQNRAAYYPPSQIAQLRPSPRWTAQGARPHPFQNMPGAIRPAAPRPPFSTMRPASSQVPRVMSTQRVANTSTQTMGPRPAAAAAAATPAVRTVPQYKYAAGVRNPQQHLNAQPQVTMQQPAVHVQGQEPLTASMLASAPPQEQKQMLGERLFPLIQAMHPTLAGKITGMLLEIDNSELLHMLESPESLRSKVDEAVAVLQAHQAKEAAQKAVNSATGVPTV
Rce1 inhib: blocks yeast Ras-converting enzyme; Q03530; calls only; hit rate 0.27% among 290,000; yeast membranes, quenched prenylated peptide cleavage fluorescence;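 active = fall in fluorescence gain of 50% or more versus controls, with final raw signal at or below 3038400; inconclusive = same 50% fall but final raw signal above 3038400; inactive = fall in fluorescence gain under 50%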;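 also: plate controls were neutral control wells for no effect and wells lacking membranes for full effect; tested at 10 µM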
Target sequence (Q03530 whole entry, looked up): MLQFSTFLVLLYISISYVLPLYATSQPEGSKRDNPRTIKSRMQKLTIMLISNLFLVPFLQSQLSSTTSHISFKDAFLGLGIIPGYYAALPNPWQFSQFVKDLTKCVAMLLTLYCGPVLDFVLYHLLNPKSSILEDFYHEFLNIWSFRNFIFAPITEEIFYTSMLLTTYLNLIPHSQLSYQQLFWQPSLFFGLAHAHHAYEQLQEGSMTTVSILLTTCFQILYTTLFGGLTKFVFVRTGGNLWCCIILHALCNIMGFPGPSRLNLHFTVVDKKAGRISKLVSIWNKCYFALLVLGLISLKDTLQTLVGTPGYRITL
eIF4H FP inh: inhibitors of RNA binding by human eIF4H; Q15056; eIF4H fluorescence polarization binding assay; inhibition, % at 35 µM; hit rate 0.94% among 290,000; AID 2012;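 active = 50% or more with normal probe brightness, or confirmed in later tests; inconclusive = above 50% with abnormal brightness, or retests that disagree; inactive = below 50% or failed in later tests; about a fifth of its hits are not listed in these tables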;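 also: calls also rest on retests at 20 µM and on dose response follow-up; 0% = protein and probe with vehicle and 100% = probe without protein; strong numbers were not always called active; many hits fall short of the cut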
HIV Env fusion: inhibitors of HIV Env-mediated cell fusion; HeLa-JRFL Env/CEM21 cell fusion, luciferase; inhibition, % at 12.3 µM; hit rate 1.1% among 360,000; AID 651610;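 active = mean replicate inhibition score of at least 50 and every replicate individually at or above 50; inconclusive = only one of the two criteria met; inactive = mean below 50 and not all replicates reaching 50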;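 also: 0% = plate neutral controls and 100% = maraviroc near 300 nM; one replicate is shown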
eIF4H FP inh retest: further read-out of eIF4H FP inh, marked with its call; inhibition, %; compound at 20 µM; confirmation average;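 mean of two retest wells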
PABP FP inh retest: second read-out of PABP FP inh, no call of its own (marks repeat the call); inhibition, %; compound at 20 µM; confirmation repeats;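 mean of two retest wells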
MT1-MMP act inh RFP: second read-out of MT1-MMP act inh, no call of its own (marks repeat the call); RFP signal change, %; measured here: RFP expression control read;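 0 = vehicle wells; hits needed this value within 50% of zero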
Active calls of the source: *; i = inactive; ? = inconclusive; · = not tested or not shown. These rows are one share of the data; rates above refer to the full screens.

SMILES	CSC inhib	MT1-MMP act inh	MT1-MMP act inh RFP	UUG fidelity	PABP FP inh	Rce1 inhib	eIF4H FP inh	HIV Env fusion	others
CN1CCN(c2nc(-c3ccncc3)nc3ccccc23)CC1	-13	-6	-1	-32	-14	i	3	·
C=CC[C@H](CC(=O)NCCO)C(=O)NC[C@H](OC(=O)[C@@H](CC=C)Cc1ccc(F)cc1)c1ccccc1	·	2	3	-2	·	·	·	28
Cc1ccc(C)c(N2CCN(S(=O)(=O)c3c(C)[nH]c(C)c3C(=O)N3CCCCC3)CC2)c1	0	-4	0	4	13	i	5	4
O=C(CCC(=O)Nc1ccccc1)NNC(=O)c1cccs1	-12	-6	-2	·	6	i	0	-317
CN[C@H]1C[C@@H](c2ccccc2)N(C(C)=O)C[C@H]1CO	·	5	2	-10	·	·	·	11
CCCc1nnc(SCC(=O)N2CCCC2)n1CC1CCCO1 (stereo not given)	3	3	10	2	-9	i	1	·
O=C(Cc1c(F)cccc1Cl)N1CCOCC1	-9	-1	0	·	-7	i	-10	-7
COc1cc2c(cc1OC)C(=O)N(C)CC2	-5	2	4	-14	7	i	-7	·
Cc1cccc(OCC(=O)Nc2ncn[nH]2)c1C	4	-3	2	-23	9	i	-3	-9
Cc1ncc(CO)c2cc(-c3nnc(Nc4ccc5c(c4)OCO5)s3)c(=O)oc12	3	-6	0	-15	3	i	5	9
CCc1cccc(NC(=O)COC(=O)c2c(-c3ccccc3)noc2C)c1	·	-3	-6	0	·	·	·	11
CC(C)OC(=O)c1nnn(-c2nonc2N)c1CSc1ccccn1	-1	-4	0	-8	5	i	4	·
CC(C)N(Cc1ccccc1)C(=O)COC(=O)/C=C/c1cnc2ccccc2n1	-2	-4	-1	·	-5	i	10	21
COc1ccc(Cn2c(C)nnc2-c2cnn(C)c2N)cc1	-6	-5	-1	·	-6	·	5	-3
Cc1cccc(OCC(O)CN2CCNCC2)c1 (stereo not given)	-9	-2	1	6	8	i	-10	3
Cc1csc2c(N3CCCCC3)ncnc12	-14	0	-5	·	-6	i	7	-21
Cc1ccccc1OCCCCc1c(C)n[nH]c1C	5	-2	-16	-20	-6	i	-3	·
Cc1ccc(C2N(C)C(=O)c3ccccc3N2C)cc1 (stereo not given)	18	1	-4	-4	-4	i	-10	-1
COCc1cc(C)nc(SCC(=O)Oc2ccccc2)c1C#N	-4	0	-2	-10	13	i	8	-7
Cc1oc2cc3oc(=O)cc(C)c3cc2c1C	-5	0	0	-15	-12	i	-14	-29
Cc1nnc(NCc2n[nH]c(=O)c3ccccc23)c2ccccc12	-5	6	2	-21	-7	i	1	·
CCOc1ccc(/C=C/C(=O)Nc2ccc(N3CCOCC3)cc2)cc1	12	-5	-1	-6	-4	i	-3	·
CCN(Cc1nc2ccccc2c(=O)[nH]1)Cc1nc2cc(OC)c(OC)cc2c(=O)[nH]1	-6	-2	-2	-11	3	i	1	-37
COc1cccc(CNS(=O)(=O)c2c(C)[nH]c(C)c2C(=O)N2CCCCC2)c1	2	2	2	-7	-4	i	-2	4
CCN(CC)CC(=O)Nc1sc(C)cc1C(=O)c1ccccc1	29	-6	-4	-7	12	i	3	18
CCN(C(=O)c1cc2cccc(OC)c2oc1=O)c1ccccc1	-9	10	8	-3	-12	i	2	·
O=C(O)CCCCNS(=O)(=O)/C=C/c1ccccc1	-13	2	-1	·	-7	i	-13	16
C=C(C)CSc1nc2sc3c(c2c(=O)n1C1CCCCC1)CCN(C)C3	23	-11	-12	0	-4	i	19	12
CCCC(=O)Oc1ccc2c(C)cc(=O)oc2c1	-4	-3	0	·	-11	i	-14	8
O=C(Nc1ccccc1)c1oc2ccccc2c1NC(=O)C1CC1	-5	0	-3	-11	11	i	-5	-11
CCOC(=O)c1sc(NC(=O)c2sc(C)nc2C)nc1C	-4	3	0	·	3	i	-4	-11
O=C(CCCCCCCCC(=O)N/N=C/c1ccco1)N/N=C/c1ccco1	2	3	-8	0	0	i	7	10
CC1(C(=O)NS(=O)(=O)c2cccc(Cl)c2)CCN1C(=O)Cc1ccccc1 (stereo not given)	·	1	5	-3	·	·	·	-3
C#CCOCCOCCOCCNc1nc(N2CCN(C(=O)C([C@@H](C)O)n3cc([C@@H](N)CCCCN)nn3)CC2)nc(N2CCN(C(=O)[C@H](CCC(=O)O)n3cc([C@@H](N)[C@H](C)CC)nn3)CC2)n1 (stereo not given in full)	·	3	7	29	·	·	·	20
CCOC(=O)C1(C)CCCN1C(=O)c1cccc(F)c1 (stereo not given)	·	-1	4	2	·	·	·	-8
CC(C)(C)OC(=O)N1CCC(CC2CC(c3cccc(Br)c3)=NO2)(C(=O)O)CC1 (stereo not given)	-15	-2	2	15	5	i	10	-1
CC(C)n1nc(Cc2cccc3ccccc23)c(C#N)c1N	1	-1	3	-2	·	i	·	19
COCCNC(=S)N(C)C1(c2ccccc2Cl)CCCCC1=O (stereo not given)	7	4	4	·	-7	i	-10	16
Cc1noc(C)c1CNCc1ccccc1	-1	4	7	-9	9	i	4	-14
COc1ccc(C(=O)Oc2cc(C)c(CN3CCOCC3)cc2C)cc1OC	-6	0	-1	5	16	i	2	18
COc1ccc(-c2noc(-c3cccc(Cl)c3)n2)cc1OC	7	6	5	-44	-4	i	-4	-27
O=C(NC1CCCCCCC1)c1ccc(F)c(S(=O)(=O)N2CCOCC2)c1	-1	0	-8	7	·	·	·	9
COc1cc(C)ccc1OCCOCCN(C)Cc1ccccc1	28	-1	1	-1	2	i	12	12
COc1ccc(OC)c(NC(=O)C2(C)CCN2C(C)C)c1 (stereo not given)	·	-2	0	-17	·	·	·	29
CCCOc1cccc(C(=O)Nc2cc(NC(=O)c3ccco3)ccc2OC)c1	·	3	-5	-5	8	i	-6	28
COc1ccc(CN2CCNC(=O)C2CC(=O)NC2CCCCCC2)c(C)c1C (stereo not given)	-3	-2	1	2	-10	i	-16	-4
Cn1c(CCNC(=O)c2ccccc2F)nnc1SCC(=O)Nc1nncs1	-14	-2	-1	-13	6	·	-14	-1
C=CCn1c2ccccc2c(=O)c2cc(C#CC3(O)CCCCC3)ccc21	-21	0	-6	-18	-3	i	-6	-384
O=C(CCCCCCCC(=O)NCC1CCCO1)NCC1CCCO1 (stereo not given)	0	3	1	-2	28	i	-8	-18
COc1ccc2sc(-c3ccccc3OC)c(-c3ccc4c(c3)OCCO4)c2c1	19	0	1	-3	·	·	·	-3
CCC(C)NC(=O)COc1ccc(OCc2ccccc2)cc1 (stereo not given)	·	0	-4	·	7	i	2	3
CCOC(=O)Cn1nnnc1CN(Cc1ccc(OC)cc1)Cc1cc2cc(C)ccc2[nH]c1=O	-8	-1	-6	3	-24	i	-6	·
COc1cc(C(=O)Nc2cc(-c3ccccc3)[nH]n2)cc(OC)c1OC	17	13	3	-7	16	i	-4	-80
COc1ccccc1OCCC(=O)OCC(=O)NCc1ccc(Cl)cc1	-15	2	-2	·	6	i	2	15
N=C1C(c2nc(-c3ccc(F)cc3)cs2)=C(O)CN1CCCN1CCOCC1	-4	7	5	1	3	i	-10	·
CCCn1c(SCC(=O)c2cc(C)n(-c3ccc4c(c3)OCO4)c2C)n[nH]c1=O	9	-4	-20	16	2	i	21	?
C[C@H]1COC(=O)[C@@H](Cc2ccc(F)cc2)C/C=C\C[C@H](CC(=O)NCCO)C(=O)N1	3	3	1	-16	·	·	·	5
CCOC(=O)CSc1nc2sc3c(c2c(=O)n1-c1ccccc1)CCN(C(C)C)C3	-2	-4	1	-4	11	i	77	4	eIF4H FP inh retest=24;PABP FP inh retest=47
OC(C#CCN1CCOCC1)c1cccs1 (stereo not given)	-5	-1	4	-24	-5	i	-5	-24
CC(C)(C)C(=O)NC(=S)Nc1cc(C(F)(F)F)ccc1N1CCOCC1	-3	-21	-20	-18	-6	i	-5	·

3 compounds already listed, sorted by heavy-atom count, highest first.
SMILES	CSC inhib	MT1-MMP act inh	MT1-MMP act inh RFP	UUG fidelity	PABP FP inh	Rce1 inhib	eIF4H FP inh	HIV Env fusion	others
Cn1c(CCNC(=O)c2ccccc2F)nnc1SCC(=O)Nc1nncs1	-14	-2	-1	-13	6	·	-14	-1
C=CCn1c2ccccc2c(=O)c2cc(C#CC3(O)CCCCC3)ccc21	-21	0	-6	-18	-3	i	-6	-384
O=C(CCCCCCCC(=O)NCC1CCCO1)NCC1CCCO1 (stereo not given)	0	3	1	-2	28	i	-8	-18

Following part
SMILES	CSC inhib	MT1-MMP act inh	MT1-MMP act inh RFP	UUG fidelity	PABP FP inh	Rce1 inhib	eIF4H FP inh	HIV Env fusion	others
Cc1ccc(CC2SC(N=C(N)N)=NC2=O)cc1 (stereo not given)	4	3	3	-15	1	i	-10	-10
CCOC(=O)N1CCN(C(=O)/C=C/c2c(C)nn(-c3ccc(F)cc3)c2Cl)CC1	·	-2	-6	·	-10	i	-7	19
COc1ccnc(Oc2ccc(F)cc2)c1C(=O)N/C=N/OCc1ccc(Cl)cc1Cl	·	3	-11	-11	13	i	-10	·
O=C(COc1ccccc1[N+](=O)[O-])NCC1COc2ccccc2O1 (stereo not given)	-2	5	4	12	·	·	·	-17
O=C(C1=C[C@@H](C2CC2)C[C@@H](OCCCCO)O1)N1CCN(Cc2ccccc2)CC1	-7	4	3	-14	13	i	5	15
O=C(Nc1ccccc1)/C(=C/c1cccnc1)NC(=O)c1ccccc1	-3	1	6	-16	-2	i	-12	7
O=C(Cn1ccc2ccccc2c1=O)NCCC(=O)NC1CCN(Cc2ccccc2)CC1	-1	1	1	-13	-6	i	-12	-23
C/C(=N\NC(N)=O)c1ccc(Cl)cc1	-5	4	6	·	-4	i	-1	·
N#Cc1ccccc1Cn1c(=O)n(CCC(=O)NCc2ccco2)c(=O)c2ccccc21	-21	-1	-3	-15	6	i	0	·
O=S(=O)(Nc1ncccn1)c1cc(Cl)ccc1Cl	-9	-5	-4	3	1	i	-9	15
O=C(CNC(=O)c1ccc(N2C(=O)c3ccccc3C2=O)cc1)OCC(=O)c1ccccc1	-3	-2	2	-20	18	i	6	-5
COc1ccc(C(=O)NCC(=O)N/N=C/C=C/c2ccccc2)cc1OC	-8	0	0	·	13	i	-6	0
COc1ccccc1/C=N/NC(=O)CNC(=O)c1ccc(S(=O)(=O)N(C)C)cc1	-8	-3	0	·	4	i	2	6
Cc1noc(C)c1C(=O)OC(C)C(=O)Nc1ccc(S(=O)(=O)NC(C)C)cc1 (stereo not given)	0	2	6	2	7	i	11	-7
Cc1cc(Cl)ccc1C(=O)C1CCCN(C(=O)CCn2cncn2)C1 (stereo not given)	-10	1	1	-13	2	i	0	4
Cn1cnc2c1c(=O)n(Cc1cccc(Cl)c1)c(=O)n2C	-5	-3	5	-5	1	i	-1	-1
O=C(CN1C(=O)c2ccccc2C1=O)Nc1ccc2c(c1)OCO2	-8	8	4	-13	-5	i	-2	-31
O=C(CN1CCN(c2ccc(Cl)cc2)CC1)NCc1cccs1	2	-3	-6	·	-6	i	2	3
Cc1ccc(CNC(=O)c2cc(-c3ccccc3C)n(CC3CC(c4cccc([N+](=O)[O-])c4)=NO3)n2)cc1 (stereo not given)	11	2	-3	-19	·	·	·	-2
Cc1ccc(-c2[nH]nc(N)c2N=Nc2ccccc2C)cc1	50	1	1	-22	8	i	-3	-52
c1ccc(CNc2nc(-c3cccnc3)nc3ccccc23)cc1	3	3	2	-15	5	i	-6	8
